GIRK2 act: opens human GIRK2 potassium channels | P48051 | HEK293-GIRK2 thallium flux, Thallos fluorescence | calls only for hits at 25 µM | actives 0.05% (n = 63,000) | AID 1259325;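 active = among the strongest 0.2% of first-round signals and kept after retests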;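 note: first round at about 10 µM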
Target sequence (P48051 whole entry, looked up): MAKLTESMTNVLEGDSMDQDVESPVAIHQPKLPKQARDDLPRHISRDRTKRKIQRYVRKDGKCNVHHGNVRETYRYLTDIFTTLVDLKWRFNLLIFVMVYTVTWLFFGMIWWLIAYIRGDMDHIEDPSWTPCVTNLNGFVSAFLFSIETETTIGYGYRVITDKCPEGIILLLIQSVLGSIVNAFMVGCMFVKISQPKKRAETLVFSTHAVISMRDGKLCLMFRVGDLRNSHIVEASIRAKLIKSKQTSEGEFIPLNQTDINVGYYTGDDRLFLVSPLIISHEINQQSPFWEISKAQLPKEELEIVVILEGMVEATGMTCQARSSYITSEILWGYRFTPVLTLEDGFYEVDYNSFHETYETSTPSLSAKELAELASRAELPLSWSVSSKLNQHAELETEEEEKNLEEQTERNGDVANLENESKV
Calls only; i = inactive.

SMILES	GIRK2 act
COC(=O)CCn1c(=O)c2c(nc3n(-c4cc(C)cc(C)c4)c(C)c(C)n23)n(C)c1=O	i
CCc1cc2c(NCC(=O)O)nc(C(C)C)nc2s1	i
CCOc1ccc2ccccc2c1C(=O)N1CCN(CC(C)O)CC1 (configuration not stated)	i
CCCn1c(=O)c2c(nc3n2CCN3c2cc(Cl)ccc2OC)n(C)c1=O	i
Cc1ccc(NC(=O)NCC#CCOc2ccc3c(c2)OCO3)cc1C	i
O=C(NCC1(c2ccc(F)cc2)CC1)C(=O)Nc1cc(F)ccc1F	i
O=C(NCCNS(=O)(=O)c1ccc(F)cc1)c1ccc(NC(=O)C2CCCC2)cc1	i
CCc1ccc(NC(=O)C(=O)NCCc2ccoc2)cc1	i
COCCn1c(C(=O)NC(C)c2ccccc2)cc2c(=O)n(C)c(=O)n(C)c21 (configuration not stated)	i
COc1ccc(-n2nnc3c(=O)n(Cc4nc(-c5ccc6c(c5)OCO6)no4)cnc32)cc1	i
FC(F)(F)c1nnc(C2CCN(Cc3nc4ccccc4[nH]3)CC2)o1	i
O=C(CCn1ccc(=O)[nH]c1=O)Nc1nnc(-c2ccsc2)o1	i
CSCC(C)(O)CNC(=O)C(=O)Nc1cccc(SC)c1 (configuration not stated)	i
CCOc1ccc2ccccc2c1C(=O)NCC1(c2ccc(F)cc2)CCOCC1	i
CCN1CCc2nc(-c3ccccc3)n(CC(=O)Nc3ccc(OC)c(OC)c3)c(=O)c2C1	i

Next section (five carried over from the part before).
SMILES	GIRK2 act
FC(F)(F)c1nnc(C2CCN(Cc3nc4ccccc4[nH]3)CC2)o1	i
O=C(CCn1ccc(=O)[nH]c1=O)Nc1nnc(-c2ccsc2)o1	i
CSCC(C)(O)CNC(=O)C(=O)Nc1cccc(SC)c1 (configuration not stated)	i
CCOc1ccc2ccccc2c1C(=O)NCC1(c2ccc(F)cc2)CCOCC1	i
CCN1CCc2nc(-c3ccccc3)n(CC(=O)Nc3ccc(OC)c(OC)c3)c(=O)c2C1	i
CC(=O)c1ccc(OCC(=O)Nc2cc(N3CCCC3)ncn2)cc1	i
CCOCCn1c(-n2nc(C)cc2C)nc2c1c(=O)n(Cc1ccccc1F)c(=O)n2C	i
COc1cc(Nc2c(C(=O)N3CCOCC3)cnc3nc(C)ccc23)cc(OC)c1	i
Cc1ccc(S(=O)(=O)NCCC(=O)N(C)C)c(C)c1N(C)S(C)(=O)=O	i
O=C(NCCOc1ccc(-c2ccc(F)cc2)nn1)c1ccccc1I	i
COc1ccc(CNC(=O)Cn2nc(C)cc2C(=O)N2CCOCC2)cc1	i
O=C(Cc1cccs1)N1CCC2(CC1)OCCN2S(=O)(=O)c1ccccc1	i
Cc1c(C(=O)NCCc2cccs2)nnn1-c1ccccc1	i
COCCN1CCC(NC(=O)c2ccc3ccccc3c2)CC1	i
O=C(NC1CCSC1=O)c1nnn(-c2ccc(OC(F)(F)F)cc2)n1 (configuration not stated)	i
COc1ccc(N2C(=O)C3N=NN(c4cccc(OC)c4)C3C2=O)cc1 (configuration not stated)	i
Cc1ccc(-c2ccnc3c(C(=O)N4CCN(c5ccccc5)CC4)cnn23)cc1C	i
C=CCn1c(SCC(=O)Nc2cccc(O)c2)nc2sc(C)cc2c1=O	i
CCOC(=O)c1[nH]c(C)c(C(O)=C2C(=O)C(=O)N(CCN3CCOCC3)C2c2cccs2)c1C (configuration not stated)	i
CCC(C(=O)NCCc1nc2c(c(C(F)(F)F)n1)CCCC2)c1ccccc1 (configuration not stated)	i
CNNCc1ccc(C(=O)NC(C)C)cc1	i
COc1ccc2cc(CNc3ccccc3)c(=O)n(CC(=O)Nc3ccc(Br)cc3)c2c1	i
Cc1ccc(NS(=O)(=O)c2ccc(F)cc2)c(-c2nc3ccccc3[nH]c2=O)c1	i
O=C(CN1CCc2nc(NC(=O)c3ccccn3)sc2C1)Nc1ccc(F)cc1F	i
COc1ccc(S(=O)(=O)N2CCN=C2SCc2ccc(F)cc2)cc1	i
Cc1nc(Nc2ccc(NC(=O)c3ccccc3C(F)(F)F)cc2)cc(-n2ccnc2)n1	i
COc1ccc(/C=C2\SC(=S)N(c3ccc(NC(C)=O)cc3)C2=O)cc1OC	i
COc1ccc(C)cc1NC(=O)Cn1c(N2CCOCC2)nc(C)cc1=O	i
CC(C)NC(=S)NNc1nc2c(-c3ccccc3)nnn2c2ccccc12	i
O=C(NCc1ccco1)c1csc(Nc2ncccn2)n1	i
Cc1ccccc1C(=O)N1CCN(c2oc(-c3ccc(Cl)cc3Cl)nc2C#N)CC1	i
CCCCc1ccc(-n2nnc(C(=O)Nc3nccs3)c2C)cc1	i
Cc1oncc1C(=O)NCC1CCN(S(C)(=O)=O)CC1	i
CC(=O)c1cccc(NC(=O)c2ccc(-n3nc(C)cc3C)nn2)c1	i
COc1ccc(OC)c(-c2c(C)c3ccc(OC(C)=O)cc3oc2=O)c1	i
COc1cccc(NC(=O)CSc2nccnc2N2CCN(c3ccccc3OC)CC2)c1	i
Cc1cc(C)n(-c2cc(SCC(=O)Nc3cccc(C)c3C)ncn2)n1	i
Cc1nc2cc(NC(=O)c3ccc(OCc4nc(C5CC5)cs4)cc3)ccc2s1	i
COC(CNC(=O)c1ccc(Cn2c(=S)[nH]c3cc4c(cc3c2=O)OCO4)cc1)OC	i
Cc1cc(NS(=O)(=O)c2ccc(NC(=O)c3ccccc3Oc3ccccc3)cc2)no1	i
Cn1c(SCC(=O)Nc2ccccc2F)nc2cc(-c3ccccc3)sc2c1=O	i
Cn1c(=O)c2c(nc3n2CC(c2ccccc2)=NN3CCN2CCCC2)n(C)c1=O	i
O=C(Nc1nc(CCC(=O)N2CCN(c3ccccc3)CC2)cs1)c1ccc(=O)[nH]c1	i
CCOC(=O)CCC(=O)N1CCN(Cc2nc3ccccc3n2Cc2ccccc2)CC1	i
O=C(Cn1cnc2c(c1=O)CCCC2)N1CCN(c2ccc(F)cc2)CC1	i
Nc1nc(SCC(=O)c2ccc3c(c2)OCCO3)n[nH]1	i
COc1cc(/C=C2\SC(=S)N(c3ccc(C(=O)O)cc3)C2=O)ccc1O	i
CCCCC[C@H](O)/C=C/[C@H]1C2COC(C2)[C@@H]1C/C=C\CCCC(=O)O (some centres not stated)	i
O=c1cccnn1CCNS(=O)(=O)CCOc1ccccc1	i
Cc1nc(-c2ccccc2Cl)sc1CNC(=O)C1CCN(S(C)(=O)=O)CC1	i

The final 5 records of the section before come first, to join the parts.
SMILES	GIRK2 act
Nc1nc(SCC(=O)c2ccc3c(c2)OCCO3)n[nH]1	i
COc1cc(/C=C2\SC(=S)N(c3ccc(C(=O)O)cc3)C2=O)ccc1O	i
CCCCC[C@H](O)/C=C/[C@H]1C2COC(C2)[C@@H]1C/C=C\CCCC(=O)O (some centres not stated)	i
O=c1cccnn1CCNS(=O)(=O)CCOc1ccccc1	i
Cc1nc(-c2ccccc2Cl)sc1CNC(=O)C1CCN(S(C)(=O)=O)CC1	i
COCCN1CCC(CNC(=O)NCCCc2ccccc2)CC1	i
Cc1cnc(C(=O)NCCc2ccc(S(=O)(=O)NC(=O)NC3CCCCC3)cc2)cn1	i
COCCCn1c(C(=O)NCC(=O)c2ccccc2)cc2c(=O)n(C)c(=O)n(C)c21	i
O=C(NCCOc1cccc2cccnc12)c1cccc(-n2cnnn2)c1	i
COc1ccc(C(=O)Nc2cccc(-n3c(C)nc4ccccc4c3=O)c2)cc1	i
CCOc1ccc(S(=O)(=O)Nc2ccc3c(c2)N(S(C)(=O)=O)CCC3)cc1	i
Fc1ccc(-c2ncn(C3CCNCC3)c2-c2ccnc(Oc3ccc(Oc4ccccc4)cc3)n2)cc1	i
CCc1c(C)nc(-n2nc(C3CC3)cc2NC(=O)CCC2CCCC2)[nH]c1=O	i
Cc1cc(-n2cc(C(=O)N3CCC(NC(=O)c4cccc(F)c4)CC3)nn2)ccc1F	i
O=C1C2N=NN(Cc3cccc(C(F)(F)F)c3)C2C(=O)N1c1ccc(F)cc1 (configuration not stated)	i
CN(C(=O)Cn1cccc(S(=O)(=O)N2CCCCCC2)c1=O)c1ccccc1	i
CCCn1c(C(=O)N2CCN(c3ccccc3)CC2)cc2c(=O)n(C)c(=O)n(C)c21	i
CNc1oc(-c2ccc(COc3ccccc3)o2)nc1C#N	i
COc1ccccc1N1CCN(c2cc(SCC(=O)Nc3cc(Cl)ccc3C)ncn2)CC1	i
O=C(Nc1ncc(CN2CCCCCC2)s1)c1ccccc1	i
CC(=O)Nc1ccc(S(=O)(=O)NCC#CCOc2cccc(C(F)(F)F)c2)cc1	i
N#Cc1nc(/C=C/c2ccccc2Cl)oc1N1CCN(C(=O)c2ccccc2)CC1	i
Cc1ccc(-c2ccc3nn(Cc4nc(-c5ccc(Cl)cc5)no4)c(=O)n3n2)cc1C	i
COc1cc(NC(=O)c2nnn(Cc3cc(Br)ccc3OC)c2N)cc(OC)c1	i
Cc1ccc(NCCNC(=O)/C=C/c2ccco2)nn1	i
CCc1noc(C2CC(=O)N(c3ccc4c(c3)CCC4)C2)n1 (configuration not stated)	i
O=C(CCS(=O)(=O)c1ccccc1)Nc1cnoc1	i
CN(CC(=O)N(CCN1CCOCC1)c1nc2c(S(C)(=O)=O)cccc2s1)S(C)(=O)=O	i
COc1ccc(S(=O)(=O)N2CCCc3cc(NC(C)=O)ccc32)cc1	i
O=C(CN1CCC(c2nnc(C(F)(F)F)o2)CC1)N1CCCc2ccccc21	i
COc1cn(C)c(C(=O)Nc2ccc(Cl)cc2)cc1=O	i
Cc1noc(C)c1S(=O)(=O)Oc1ccc2c(c1)ncn2C	i
CC1=C(C(=O)Nc2ccc3n[nH]c(C)c3c2)C(c2ccc(C(F)(F)F)cc2)CC(=O)N1 (configuration not stated)	i
Cc1cc(C)nc(Nc2nc(CC(=O)NCc3ccccn3)cs2)n1	i
CCCCC[C@H](O)/C=C/[C@H]1C(=O)C[C@H](O)[C@@H]1C/C=C\CCCC(=O)NC(CO)CO	i
CCOc1ccc(NC(=O)N2CCC3(CC2)OCCS3)cc1	i
NS(=O)(=O)c1ccc(CNC(=O)C2CSCCC(=O)N2)cc1 (configuration not stated)	i
CCOc1cccc2sc(NC(=O)c3ccnn3C)nc12	i
CCn1nc(C(=O)NCCc2ccc(OC)cc2)ccc1=O	i
CCN(CC)S(=O)(=O)c1ccc(NC(=O)c2ccc3c(c2)OCO3)cc1	i
Cc1cc(C)n(-c2nc(CCNC(=O)C(=O)c3c[nH]c4ccccc34)cs2)n1	i
CCOc1ccc(-c2csc(Nc3ccc(F)cn3)n2)cc1	i
O=C(c1nc2ccccc2s1)N1CCN(CC(F)(F)F)CC1	i
C#CCCNC(=O)CCn1ccc(=O)[nH]c1=O	i
Cc1csc(C(=O)N2CCC(Oc3ccc(C(F)(F)F)cn3)CC2)c1	i
COc1cc(NC(=O)Cn2nc3c(Oc4ccccc4)nccn3c2=O)cc(OC)c1OC	i
Cc1cccc(N2CCN(c3ncc(C(=O)NCc4ccccc4F)c(N)n3)CC2)c1	i
COc1ccc(Cl)cc1NC(=O)N(c1ccccc1)c1ccccc1	i
Cc1cc2ccccc2n1CCCNC(=O)c1ccncc1	i
COc1ccc(CCC(=O)NCC#CCOc2cccc(C(F)(F)F)c2)cc1	i
O=C(Cc1ccccc1)Nc1ccc2c(c1)OCCO2	i
Cc1ccc(NC(=O)C(=O)NCCC(O)C2CC2)cc1C (configuration not stated)	i
CCOC(=O)COc1ccc2c(=O)c(-c3ccc(Br)cc3)c(C)oc2c1	i
CC(=O)Oc1ccc2c(=O)c(Oc3ccc(Cl)cc3)coc2c1	i
CS(=O)(=O)N1CCc2nc(NC(=O)c3ccc(OC(F)(F)F)cc3)sc2C1	i
CCN(CC)CCN1C(=O)c2oc3cc(OC)ccc3c(=O)c2C1c1ccc(C(C)C)cc1 (configuration not stated)	i
O=C(c1ccc(Cl)c(Cl)c1)N1CCN(Cc2nncn2C2CCCCC2)CC1	i
CCCCCCCCCCCCCCCCC/C=C/C(=O)O	i
CC(O)(CNC(=O)CSC1CCCC1)c1ccco1 (configuration not stated)	i
CC(O)(CNC(=O)c1cc(-c2ccccc2)on1)c1cccs1 (configuration not stated)	i
O=C(c1c(F)cccc1F)N1CCN(c2ncnc3c2nnn3-c2ccccc2)CC1	i
O=C(NCCCn1ccnc1-c1ccccc1)c1cc2ccccc2oc1=O	i
Clc1cc2c(c(CN3CCN(c4ccccc4)CC3)c1)OCOC2	i
O=C(C1CCCC1)N1CCN(CC(O)c2ccco2)CC1 (configuration not stated)	i
CCc1cc2c(=O)c(-c3ccc4c(c3)OCCO4)c(C)oc2cc1OS(C)(=O)=O	i

(continued)
SMILES	GIRK2 act
O=C1NC(=NCCc2ccccn2)S/C1=C\c1ccc2ncccc2c1	i
COc1ccc(OC)c(-c2cc(C(=O)N3CCn4c3nc3ccccc34)n(C)n2)c1	i
Cc1ccccc1NC(=O)N1CCc2nc(NC(=O)NC3CCCC3)sc2C1	i
Cc1ccnc(Nc2cc(N3CCN(C(=O)C(C)Oc4ccccc4)CC3)nc(C)n2)c1 (configuration not stated)	i
c1ccc2c(CN3CC(c4nc(C5CC5)no4)C3)cccc2c1	i
Cc1onc(-c2ccccc2Cl)c1C(=O)N1CCN(Cc2nnnn2-c2ccc(Cl)cc2)CC1	i
COC(=O)N1CCC(CNC(=O)NCc2cccs2)CC1	i
Cc1ccc(NC(=O)CSc2nc3c(oc4ccccc43)c(=O)n2Cc2ccco2)cc1F	i
CC(=O)c1ccc(N2CCN(C(=O)C3CCN(c4cc(Oc5ccccc5)ncn4)CC3)CC2)cc1	i
O=C(CSc1nnc(-c2cccnc2)o1)Nc1ccc([N+](=O)[O-])cc1	i
Cc1c(Cl)cccc1N1CCN(S(=O)(=O)N(C)C)CC1	i
C=CCn1c(SCC(=O)Nc2cccc(C(C)=O)c2)nc2scc(-c3ccc(C)o3)c2c1=O	i
Cc1cc2c(=O)n(C)c(SCC(=O)Nc3ccc4c(c3)OCCO4)nc2s1	i
CCSc1ccccc1C(=O)NCC1CCN(Cc2cc(C)oc2C)CC1	i

This is a subset; rates above refer to the full screens.
